Screening results as filed in PubChem BioAssay.
TRPML1 agonist: qHTS for Agonists of the Human Mucolipin Transient Receptor Potential 1 (TRPML1); Mucolipin-1 (Homo sapiens), Q9GZU1; TRPML1-expressing cells, Ca2+ dye fluorescence, FDSS; host cell line not named in the record; reference of the full effect not given here; activation, % (no concentration beside the values); 410,000 tested, 0.12% active; in the data active = activation above about 50%; inconclusive = about 30% to 50%; inactive = below about 30%; note: 0% is about no effect; the text of the record puts the active cut at 80%
Target sequence (Q9GZU1 whole entry, looked up): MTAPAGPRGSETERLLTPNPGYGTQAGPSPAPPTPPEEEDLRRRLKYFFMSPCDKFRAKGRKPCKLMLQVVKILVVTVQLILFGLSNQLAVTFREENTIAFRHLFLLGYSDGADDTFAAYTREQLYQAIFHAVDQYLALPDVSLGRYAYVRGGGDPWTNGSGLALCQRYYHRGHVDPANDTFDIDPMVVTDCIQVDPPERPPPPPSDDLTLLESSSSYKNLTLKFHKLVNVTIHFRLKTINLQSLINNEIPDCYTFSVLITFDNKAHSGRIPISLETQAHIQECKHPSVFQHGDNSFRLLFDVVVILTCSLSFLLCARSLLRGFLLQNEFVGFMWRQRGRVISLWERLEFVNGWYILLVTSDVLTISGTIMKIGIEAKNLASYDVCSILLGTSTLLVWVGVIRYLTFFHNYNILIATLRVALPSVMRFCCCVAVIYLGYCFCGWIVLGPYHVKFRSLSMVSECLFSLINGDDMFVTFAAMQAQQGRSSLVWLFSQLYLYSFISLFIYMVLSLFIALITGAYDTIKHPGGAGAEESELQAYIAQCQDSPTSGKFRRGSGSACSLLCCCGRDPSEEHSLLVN
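Calcium fluorescence on an FDSS kinetic reader gave the read-out. Tet-induced TRPML1-DL cells were plated overnight, dye-loaded (Ca8 with quencher, 45-90 min, room temperature, dark), then read 110 s after compound addition, and again 110 s after 4uM final 54-4 (EC80).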
Sfp inh: qHTS Assay for Inhibitors of Bacillus subtilis Sfp phosphopantetheinyl transferase (PPTase) | 310,000 tested, 3.5% active | Biochemical Sfp PPTase activity, qHTS | AID 1490, 2009 | Potency, µM, without a hit: max response, negative = inhibition, hits mostly inhibitors | 4'-phosphopantetheinyl transferase ffp (Bacillus subtilis), Q9F4F7; active = well fitted inhibition curve with a large enough effect; inconclusive = small, poorly fitted or top-dose-only effect, or another doubt; inactive = no such curve, though single readings can be large or run the other way;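 note: the enzyme is Sfp with the accession as filed and its product quenches rhodamine fluorescence; potency is the fitted concentration of half-maximal effect; 0% = enzyme reaction without inhibitor and -100% = no enzyme wells; top concentration of the series not given in the record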
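Reaction rates are the 30-min fluorescence difference (ex 525, em 598 nm) in wells containing 15 nM Sfp, 5 uM rhodamine-CoA and 12.5 uM BHQ-2-YbbR at pH 7.6 with 10 mM MgCl2.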
PINK1 modulator: A Quantitative High throughput Screen to Identify Chemical Modulators of PINK1 Expression. 410,000 tested, 0.2% active. Potency, µM (highest dose often 76.6 µM), for inactives: top-dose activation (PINK1 increase), usual class: activators. PINK1 immunofluorescence, high-content cytometry, 24 h. AID 624263, 2012; active = well fitted activation curve with a large enough effect; inconclusive = small, poorly fitted or top-dose-only effect; inactive = flat fitted curve, though single readings scatter; cell line not stated here;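 note: potency is the fitted concentration of half-maximal effect; % of control where 0% means no effect; nearly all actives have a fitted effect of over 65% in size; a mitochondrial uncoupler was the plate control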
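Readout is PINK1 immunofluorescence, quantified alongside mitochondrial, cell and nuclear markers by laser-scanning microplate cytometry. Cells from a stable line were exposed to compound titrations (5 concentrations) for 24 hours, with CCCP controls.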
ClpP mod: qHTS Assay for Activators of ClpP | Potency, µM (top dose mostly 57.5 µM), inactives show at the top dose activity change, negative = active | ATP-dependent Clp protease proteolytic subunit (Bacillus subtilis (strain 168)), P80244 | AID 651965, 2013 | purified B. subtilis ClpP, FRET peptide cleavage, 20 min | 340,000 tested, 1.9% active; active = well fitted falling curve with a large enough effect; inconclusive = small, poorly fitted or top-dose-only effect; inactive = no such curve, though single readings can be large or run the other way; note: potency is the fitted concentration of half-maximal effect; the source files actives as falling curves though it sought activators and does not explain the sign; nearly all actives have a fitted effect of over 65% in size; many hits overshoot -100%
Target sequence (P80244 whole entry, looked up): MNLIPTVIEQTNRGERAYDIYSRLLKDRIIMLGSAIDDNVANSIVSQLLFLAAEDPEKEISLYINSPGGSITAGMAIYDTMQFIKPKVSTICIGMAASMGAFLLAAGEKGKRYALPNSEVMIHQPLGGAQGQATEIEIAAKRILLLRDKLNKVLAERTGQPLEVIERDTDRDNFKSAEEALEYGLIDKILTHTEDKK
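ClpP 10 microg/mL final, pH 8 Tris/KCl buffer with BSA, glycerol, Tween-20; compound pinned in; FRET-FV substrate; RT 20 min; Ex320/Em430; ΔFRET vs ADEP 5.8 microM, DMSO, no enzyme.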
Menin MLL FP FL: qHTS Assay for Inhibitors Targeting the Menin-MLL Interaction in MLL Related Leukemias: Competition With Fluorescein Labeled MLL-derived Peptide; Fluorescence polarization, fluorescein-MLL peptide displacement from menin; FP activity change, % at 61.4 µM; 290,000 tested, under 10 active; inconclusive = falling polarisation curve, or a change in total fluorescence; inactive = total fluorescence flat and polarisation flat or rising; no compound was filed as active; the % refers to the polarisation; negative = inhibition;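 note: % of control where 0% means no effect; inhibitors lower the polarisation; unlabelled MLL peptide was the positive control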
TRPML1 inh: qHTS for Inhibitors of the Human Mucolipin Transient Receptor Potential 1 (TRPML1) | TRPML1-inducible cells, Ca2+ dye fluorescence, FDSS; hits give low values; inhibition of EC80 agonist-evoked calcium signal | AID 624415, 2012 | Mucolipin-1 (Homo sapiens), Q9GZU1 | 390,000 tested, 0.02% active | activity change, negative = inhibition, % (concentration not given with the values); in the data active means activity change below about -50%; inconclusive means about -30% to -50%; inactive means above about -30%;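 note: stimulus is agonist 54-4 at its EC80 concentration; % is set by controls: 0 for no effect and ±100 for the full control effect; compound concentration not given in the record; the text of the record puts the active cut at -80%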
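Calcium fluorescence in TRPML1-DL cells induced overnight with Tet: a 110 s read after compound pin addition, then a 110 s antagonist read after challenge with 54-4 at 4 uM final (EC80).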
TRPV1 potentiator: HTS Assay for Compounds that Act as Potentiators of the Vanilloid Receptor 1; Transient receptor potential cation channel subfamily V member 1 (Homo sapiens), Q8NER1; TRPV1-expressing cells, Fluo-8 calcium influx, capsaicin EC20 potentiation; host cell line not named in the record; control for the full effect not named in the record; potentiation, % at 8.33 µM; 320,000 tested, 0.02% active; active means potentiation above 80%; inconclusive means 30% to 80%; inactive means below 30%; note: 0% is about no effect
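Fluo-8 calcium influx in TRPV1-expressing cells, kinetic read (ex 480/em 520 nm). Compound added and read 3 min for agonist activity, followed by capsaicin at EC20 final and 2 min further read for enhancement.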
* = called active by the depositor; ? = inconclusive; / = no result given; [ ] = dose if it differs, or a comment. Compounds were not picked by outcome; overall some 4.4% were active at least once.

SMILES	TRPML1 agonist	Sfp inh	PINK1 modulator	ClpP mod	Menin MLL FP FL	TRPML1 inh	TRPV1 potentiator
O=C(NCCc1c[nH]c2ccccc12)C(=O)NCC1OCCCN1S(=O)(=O)c1cccs1 (centres undefined)	-0.6	20%	-0.9%	/	0.1	9	-17
COc1cc(C(O)c2nc(-c3csc4ccccc34)cs2)ccc1F (centres undefined)	0.6	/	2.2%	-2.0%	/	/	/
Cc1ccc(N/C(N)=N/c2nc(C)cc(N3CCCCC3)n2)c(C)c1	-0.5	-6%	?	/	-2.5	21	-2
O=C(COC(=O)Cn1cnc2ccccc2c1=O)Nc1ccc(Cl)cc1	0.8	11%	1.2%	0.1%	3.4	-1	-7
NC(c1csc(NC(=O)Nc2cccc(C(F)(F)F)c2)n1)C1CCCCC1 (centres undefined)	1.8	/	-1.3%	1.2%	/	/	/
COc1ccc(N(CC(=O)N/N=C/c2ccc(-c3ccc([N+](=O)[O-])cc3)o2)S(=O)(=O)c2ccc(C)cc2)cc1Cl	0.6	18%	-2.1%	1.1%	?	-10	3
COc1ccccc1-c1nc2s/c(=C\c3cccs3)c(=O)n2n1	-0.3	-12%	1.3%	-1.8%	14	8	27
CCOC(=O)[C@]12CCCC=C1N(Cc1ccc3c(c1)OCO3)C(=O)[C@H](CC(=O)NCc1ccc(OC)c(OC)c1)C2	-0.7	/	1.3%	1.3%	/	/	/
CN(C)C(=O)c1ccc(-c2ccc3ncnc(NCc4cccnc4)c3c2)cc1	/	19%	-0.6%	/	-14	/	/
CCOC(=O)c1cnn(-c2ccccc2)c1NC(=O)CCl	-0.2	-13%	1.7%	/	2.8	-4	15
Cc1cc(NS(=O)(=O)c2ccc(NC(=S)NC(=O)/C=C/c3ccccc3)cc2)no1	-0.2	16%	0.9%	/	1.7	9	0
CCOC(=O)c1cccc(NC(=O)c2ccc3snnc3c2)c1	1.1	/	-1.3%	-4.1%	/	-8	/

The last five compounds of the part above come first, to join the parts.
SMILES	TRPML1 agonist	Sfp inh	PINK1 modulator	ClpP mod	Menin MLL FP FL	TRPML1 inh	TRPV1 potentiator
CCOC(=O)[C@]12CCCC=C1N(Cc1ccc3c(c1)OCO3)C(=O)[C@H](CC(=O)NCc1ccc(OC)c(OC)c1)C2	-0.7	/	1.3%	1.3%	/	/	/
CN(C)C(=O)c1ccc(-c2ccc3ncnc(NCc4cccnc4)c3c2)cc1	/	19%	-0.6%	/	-14	/	/
CCOC(=O)c1cnn(-c2ccccc2)c1NC(=O)CCl	-0.2	-13%	1.7%	/	2.8	-4	15
Cc1cc(NS(=O)(=O)c2ccc(NC(=S)NC(=O)/C=C/c3ccccc3)cc2)no1	-0.2	16%	0.9%	/	1.7	9	0
CCOC(=O)c1cccc(NC(=O)c2ccc3snnc3c2)c1	1.1	/	-1.3%	-4.1%	/	-8	/
COCCOC(=O)C1=C(C)NC(=O)NC1C1CC=CCC1 (centres undefined)	0.4	20%	/	0.0%	1.0	-5	5
COc1cc([N+](=O)[O-])ccc1-c1ccc(/C=N/NC(=O)OC(C)(C)C)o1	7.1	14%	18%	/	?	-16	3
Cc1c(C(=O)NCc2cccc(C(F)(F)F)c2)sc(=O)n1Cc1ccc(S(=O)(=O)N(C)C)cc1	0.0	/	0.6%	1.3%	/	/	/
CC(C)C(=O)Nc1c2c(nc3c1CCC3)CCCC2	-0.3	0%	1.0%	0.1%	0.1	-8	-2
O=C(Cn1c(=O)nc(-c2ccccc2)c2ccccc21)NCCc1ccc(Cl)cc1	2.1	/	1.6%	3.7%	/	-2	/
O=C(NCCc1ccccc1F)C1CC(=O)N(c2ccc3c(c2)OCCO3)C1 (centres undefined)	-0.9	/	1.9%	1.6%	/	-1	/
Cc1ccccc1-c1ccc(=O)n(CC(=O)Nc2ccc(C(=O)N3CCCC3)cc2)n1	1.4	4%	-1.6%	-5.1%	-1.1	-7	-5
O=C(CCN1C(=O)COc2ccccc21)NCCN1CCOCC1	-0.1	8%	9.3%[38.3 µM]	3.1%	0.9	-4	-1
Cc1cc(OCC(=O)O/N=C(\N)Cc2cccs2)ccc1Br	1.0	3%	1.1%	2.0%	0.7	0	13
CC(C)(C)c1cccc(S(=O)(=O)N2CCN(c3nc(-c4cccs4)nc4ccccc34)CC2)c1	0.3	/	-0.2%	4.0%	/	/	/
O=C(Nc1ccccc1)C(=O)c1cn(CC(=O)N2CCCCC2)c2ccccc12	0.1	4%	3.7%	0.0%	-4.5	-5	-5
COc1ccccc1CNc1ccc(C(=O)O)cc1	-0.3	23%	-1.0%	-6.7%	1.9	3	22
CC1CCC/C(=N\NC(=O)c2ccncc2)C1 (centres undefined)	-0.4	-11%	2.7%	-1.4%	0.9	13	-25
Cc1ccc(-n2ncc3c(N4CCN(C)CC4)ncnc32)cc1Cl	1.5	/	0.7%	0.6%	/	42	/
CCc1ccc(OCC(=O)NCC(c2ccc(Cl)cc2)N2CCCCC2)cc1 (centres undefined)	0.2	-3%	-1.4%	-2.3%	0.9	49	-19
COc1ccccc1CNC(=O)COC(=O)c1cc(C)nc2ccccc12	0.1	/	-2.6%	-12%	/	5	/
CCN(CC)C(=O)CSc1ccc(C(F)(F)F)cc1[N+](=O)[O-]	-0.2	7%	-0.7%	-1.6%	0.2	2	-7
CC(C)c1ccc(N(CC(=O)NCc2ccc(F)cc2)C(=O)c2snc(C(N)=O)c2N)cc1	4.1	8%	7.1%	/	-0.6	-1	17
CCN1CCN(c2ccc(NC(=O)COc3ccccc3Cl)cc2)CC1	0.2	5%	-0.4%	0.9%	-8.2	-1	-42
COc1cc(Cl)c(C)cc1NC(=O)CCc1c(C)nc2cc(-c3cccc(F)c3)nn2c1C	-0.3	/	0.9%	?	/	14	/
Cc1ccc(NC(=O)CSc2nc3c([nH]c4ccccc43)c(=O)n2C)cc1	-0.7	18%	4.7%	-5.9%	2.8	4	9
COc1ccccc1/C=C1\SC(=S)N(C(C(=O)O)c2ccccc2)C1=O (centres undefined)	/	56µM*	0.2%	0.2%	7.0	/	2
O=C(Nc1nonc1NC(=O)C1CCCCC1)C1CCCCC1	-1.3	-30%	0.3%	1.2%	1.4	8	-6
CN(C)c1ccc(/C=N/Nc2ccc(-n3ccnc3)nn2)cc1	-0.2	45µM*	4.6%	-1.5%	1.5	31	11
CC/C(C)=N/Nc1nc2c(c(=O)[nH]c(=O)n2C)n1CCc1ccccc1	1.4	?	0.6%	/	0.4	-9	2
COc1ccc(C2C(C(=O)Nc3cc(OC)c(OC)c(OC)c3)c3ccccc3C(=O)N2C)cc1 (centres undefined)	1.1	9%	9.0%	/	1.8	8	3
O=C(N/N=C\C=C\c1ccco1)C1COc2ccccc2O1 (centres undefined)	0.0	40µM*	-1.0%	1.4%	?	18	26
CC(C)NC(=O)C1(O)c2ccccc2NC(=O)N1c1ccc(Cl)c(Cl)c1 (centres undefined)	2.5	14%	-0.2%	1.0%	1.2	10	-3
CC(C)C[C@H](N)c1cn([C@@H](Cc2cc3ccccc3[nH]2)C(=O)N2CCNCC2)nn1	0.7	13%	-0.6%	-3.3%	-8.1	9	3
COc1ccc(N2CCN(C(c3ccco3)c3sc4nc(C)nn4c3O)CC2)cc1 (centres undefined)	0.7	-10%	4.5%	-3.4%	1.5	-5	2
CN(C)c1ccc(CN(Cc2ccco2)C(=O)c2ccc(C(C)(C)C)cc2)cc1	-0.4	/	2.0%	-14%	/	-10	/
CN(C)S(=O)(=O)c1cccc(NC(=S)NNC(=O)c2cc3ccccc3cc2O)c1	-0.2	/	2.3%	/	/	2	14
COc1ccc(OC)c(NC(=O)c2cccc(NC(=O)c3ccccc3)c2)c1	-0.6	7%	3.3%	/	-1.3	20	20
CCOc1cccc2cc(-c3cn4c(n3)sc3ccccc34)c(=O)oc12	1.1	/	0.2%	-7.7%	/	24	/
CN(CC(=O)Nc1cccc(F)c1)C(=O)c1ccncc1	1.3	21%	-0.8%	-1.0%	1.2	?	0
CCc1cccc(NC(=O)COC(=O)CSc2ccc(C)cc2)c1	0.8	/	-0.7%	1.2%	/	-11	/
CCOC(=O)N1CCN(Cc2cc(=O)oc3ccc4ccccc4c23)CC1	2.0	4%	-1.1%	-16%	3.5	10	-21
CCOc1ccc(NC(=O)Nc2ccc3snnc3c2)cc1	0.4	/	0.1%	0.1%	/	7	/
COc1cc(/C=N/NC(=O)CNC(=O)c2ccncc2)ccc1O	7.0	-4%	-0.4%	-2.3%	-2.1	30	-5
COc1cc(/C=C2\SC(=Nc3ccccc3OC)NC2=O)ccc1O	1.8	9%	-0.3%	/	?	13	7
Cc1nnc(NC(=O)CSc2nnc(-c3ccco3)o2)s1	0.0	7%	-0.8%	/	-0.3	2	-2
COc1ccc(OC)c(NC(=O)Cn2c(CCC(=O)O)ccc2-c2ccc(C)cc2)c1	1.3	18%	-0.9%	/	-0.4	-13	3
CCCCN(C(=O)C1CC(=O)N(c2ccc3c(c2)OCCO3)C1)c1c(N)n(CCC)c(=O)[nH]c1=O (centres undefined)	6.9	/	-0.2%	0.9%	/	13	/
O=C(OCn1nnc2ccccc2c1=O)c1cccc(S(=O)(=O)N2CCOCC2)c1	-0.4	/	-1.1%	-0.8%	/	-10	7
COc1cccc(N(CC(=O)Nc2ccccc2C)S(C)(=O)=O)c1	0.2	8%	-0.5%[38.3 µM]	-0.9%	4.6	-2	-2
O=C1C=C(NC2CC2)C2(CCCCC2)O1	-0.7	5%	-1.8%	13µM*	0.4	11	2
CCN(CC)C(=O)CCCSc1nnc(Nc2ccccc2F)s1	-0.9	-10%	1.2%	/	-0.3	-13	-10
